Mtb hypoxia rep – PubChem AID 1159583; hit rate 0.1% among 300,000; M. tuberculosis hypoxia-regulated fluorescent reporter, fluorescence; fluorescence inhibition, % (concentration not given with the values);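 active means 35 to 45% if threefold the growth effect, above 45% if 1.5-fold the growth effect; inactive means the rest, general growth blockers included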;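 further: wells of about 50 µL received 100 nL stock; 0% = vehicle wells and 100% = reference inhibitor wells; whole bacteria with a GFP reporter of the hypoxia response; strong numbers were not always called active; many hits fall short of the cut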
Sa RN4220 lethal – growth inhibition of S. aureus RN4220, primary screen, OD600. 16 h. inhibition, % (concentration not given with the values). hit rate 0.33% among 330,000;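 active means z-score of -3 or lower and OD600 up to 0.18 on both plates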;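 further: plate controls were untreated cells for no effect and reference antibiotic for full effect; stock transfer was 100 nL into about 80 µL; one replicate is shown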
PrP 5UTR inh – inhibition of PrP 5' UTR reporter expression; inhibition, % (no concentration beside the values); AID 488862, 2010; cell-based PrP 5' UTR mRNA reporter, plate reader; hit rate 0.35% among 340,000;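 active means every replicate at 50% or more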;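 further: 0 = median of the neutral control wells; tested in H4 reporter cells; numbers are from one replicate; inactives centre near -14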
BJeLR lethal – MLPCN primary cell-based screen for lethality selective to Ras in HRASV12 cells. BJeLR (HRASV12) viability, CellTiter-Glo ATP luminescence, 48 h; reference of the scale not given here. inhibition, % (concentration not given with the values). hit rate 0.17% among 300,000;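 active means replicate mean above 50%; inconclusive means above 50% but judged a plate artefact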;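 further: 50 nL library stock added to about 25 µL; numbers are from one replicate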
Sa ugtP lethal – growth inhibition of ugtP-null S. aureus, primary screen, RN4220 ugtP deletion, OD600; 16 h; some inactives read as strong as hits; growth inhibition, % (concentration not given with the values); hit rate 0.54% among 330,000; AID 1259309, 2017;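 active means z-score under -3 and OD600 up to 0.15 on both plates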;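 further: plate controls were untreated wells for no effect and antibiotic for full effect; wells of about 80 µL received 100 nL stock; the first replicate is given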
Autofluor counter – compound fluorescence in toxin protease inhibitor counterscreen. compound autofluorescence counterscreen, microsphere flow cytometry; stronger effect = higher value. fluorescence intensity (no concentration beside the values). hit rate 3.1% among 360,000;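 active means at least 3 SD above the mean of all compounds, about 16000 in these data; inconclusive means too few beads counted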;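 further: 100 nL of 1 mM stock went into each well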
Mtb hypoxia rep growth – further read-out of Mtb hypoxia rep, marked with its call; growth inhibition, %; measured here: M. tuberculosis growth (absorbance);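 0% = vehicle and 100% = reference antibiotic; read after six days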
The depositor's hits bear a star; ? = inconclusive; . = not tested or not shown.

molecule	Mtb hypoxia rep	Mtb hypoxia rep growth	Sa RN4220 lethal	PrP 5UTR inh	BJeLR lethal	Sa ugtP lethal	Autofluor counter
CN(CCc1ccccn1)C(=O)CCC1CCCN(C(=O)NC2CCCCC2)C1 (stereo unspecified)	18	20	-1.9	-17	2	11	4213
O=C(COc1ccccc1Cl)NCCNC(=O)c1cnccn1	-1	-8	5.7	0	-3	4	4835
COC1=CC=C2[C@H]3Cc4ccc(OC)c5c4[C@@]2(CCN3C)C1O5 (stereo partly specified)	.	.	1.1	-16	.	6	4710
COc1ccc(S(=O)(=O)N(C)CC(=O)NCc2ccco2)cc1	-2	1	6.1	-26	7	-5	7847
C#Cc1ccc([C@H]2C=C(C(=O)N3CCOCC3)O[C@@H](OCc3ccc(CO)cc3)C2)cc1	.	.	.	-16	13	.	2936
CCCCN(C)C(=O)c1ccc2c(c1)N(CC)C(=O)c1ccccc1S2(=O)=O	5	14	-6.3	-12	-11	-2	6126
CCN1C(N(C)CCc2cccs2)=N[C@@H](c2ccccc2)C(C(=O)OC)=C1C	.	.	.	-19	7	.	4322
CCC(=O)N1CCc2cc(S(=O)(=O)CCC(=O)N(C)c3ccc(OC)cc3OC)ccc21	2	3	-1.5	-17	2	-5	5980
Cn1c(O)c(C(=Nc2ccccc2)SCc2ccccc2Cl)c(=O)n(C)c1=O	19	8	6.5	-9	4	5	4100
CCOc1ccc(/C=N/NC(=O)c2nnn(-c3nonc3N)c2-c2ccc(OCC)cc2)cc1	.	.	.	-11	-11	.	2055
Cc1ccc(S(=O)(=O)N2CCN(C(=O)c3ccccn3)CC2)cc1	-1	22	2.1	-51	-14	6	4750
COc1ccc(-c2nnc(SC(C)C(=O)NNC(=O)c3ccc(C)cc3)o2)cc1 (stereo unspecified)	-8	13	-1.6	-17	6	-5	1968
CCN1CCN(c2nc(Nc3cccc(OC)c3)nc(N)c2[N+](=O)[O-])CC1	1	2	6.7	-5	-1	-1	3974
CCN(CC(=O)Nc1ccc2c(c1)OCCO2)C(=O)c1cc(Cl)nc2ccccc12	-1	-4	0.8	-22	.	2	8284
CCC(C)(C)N(C(=O)CCC(=O)Nc1cc(C)on1)C(C(=O)NC(C)(C)C)c1ccc(OC)cc1 (stereo unspecified)	-9	2	0.7	-12	13	14	3827

One compound at a time, from the list above:
Shown for `O=C(COc1ccccc1Cl)NCCNC(=O)c1cnccn1` : Mtb hypoxia rep = -1; Mtb hypoxia rep growth = -8; Sa RN4220 lethal = 5.7; PrP 5UTR inh = 0; BJeLR lethal = -3; Sa ugtP lethal = 4; Autofluor counter = 4835
Shown for `Cc1ccc(S(=O)(=O)N2CCN(C(=O)c3ccccn3)CC2)cc1` : Mtb hypoxia rep = -1; Mtb hypoxia rep growth = 22; Sa RN4220 lethal = 2.1; PrP 5UTR inh = -51; BJeLR lethal = -14; Sa ugtP lethal = 6; Autofluor counter = 4750

Next section.
molecule	Mtb hypoxia rep	Mtb hypoxia rep growth	Sa RN4220 lethal	PrP 5UTR inh	BJeLR lethal	Sa ugtP lethal	Autofluor counter
COc1ccc(S(=O)(=O)Nc2ccccc2OC)cc1NC(=O)CC1CC2CCC1C2 (stereo unspecified)	-3	0	-3.5	-5	-4	-19	2203
CCNS(=O)(=O)c1ccc(CCC(=O)N2CCCC2)cc1	12	7	0.3	-27	2	15	3604
Cc1sc(NC(=O)c2cccs2)c(C(=O)OC(C)C)c1C	5	6	7.2	-1	-1	-3	9008
CCN(CC)c1ccc(C=NNC(=O)Cc2cccs2)cc1	2	1	3.5	.	.	5	.
CCCc1cc(N2CCN(c3ccccn3)CC2)n2nc(C)c(-c3ccccc3)c2n1	12	9	1.1	-18	-1	11	3397
CCCCc1nc(N2CCOCC2)c(C#N)c2c1COC(C)(C)C2	.	.	2.9	-42	-2	8	5954
CCOC(=O)c1c(NC(=O)c2ccc(N3C(=O)[C@@H]4[C@H](C3=O)[C@H]3C=C[C@@H]4C3)cc2)sc2c1CC(C)CC2 (stereo partly specified)	5	-1	5.9	-28	6	8	2555
CC(=NCc1cccnc1)c1c(O)n(C2CCCCC2)c(=O)[nH]c1=O	5	6	2.5	-33	9	2	22369*
O=C(C1CCN(CCCc2ccccc2)CC1)N(CCc1ccccc1)Cc1ccccc1	-5	8	-2.5	2	-12	-11	2015
O=C(CCC(=O)N1CCCCC1)Nc1ccc(Cl)c(Cl)c1	4	0	1.7	-8	-12	0	4507
O=C(NCCN1C(=O)S/C(=C\c2cccs2)C1=O)c1ccco1	4	10	1.2	-16	-19	2	4338
O=C(C1CCC1)N1CCN(c2cccc(C(F)(F)F)c2)CC1	-3	14	-2.9	-31	9	-2	3940
COc1ccccc1CNC(=O)COC(=O)c1n[nH]c2ccccc12	-6	2	0.2	-20	-9	-12	3275
Cc1ccc(F)cc1NC(=O)Cc1ncc(C(F)(F)F)cc1Cl	2	9	2.1	-31	-3	0	10220
CCOC(=O)c1nnn(-c2ccccc2C#N)c1C	9	11	1.1	-11	6	-1	4309
CCN(CC)c1ccc2cc(C(N)=O)c(=NNC(=O)c3ccncc3)oc2c1	-12	-1	10	.	.	-8	.
N/C(=N/OC(=O)c1cccc([N+](=O)[O-])c1)c1cccc([N+](=O)[O-])c1	.	.	.	-52	-7	.	4333
CCCCc1ccc(NC(=O)CSc2nc(=O)n(CCCN3CCOCC3)c3c2CCC3)cc1	3	7	-0.6	-11	-2	4	?
O=C1CCN(c2ccccc2)N1	-2	8	2.8	-28	.	1	3939
Cc1cc(NS(=O)(=O)c2ccc(NS(=O)(=O)c3ccc(CC(C)C)cc3)cc2)nc(C)n1	-7	0	2.5	-18	-4	2	4421
CN1CCc2nc3sc(C(=O)NC4CC4)c(N)c3cc2C1	13	1	3.4	-13	-6	-3	2003
CCCCOc1ccc(-c2[nH]ncc2C=O)cc1	12	5	6.2	-71	3	5	2415
NNC(=O)c1ccc([N+](=O)[O-])c(CS(=O)(=O)c2ccc(Cl)cc2)c1	.	.	2.7	-33	0	2	2847
COc1cc(C(=O)OCC(=O)Nc2c(F)cccc2F)cc(OC)c1C	3	3	1.2	-14	-4	-5	4712
CCOc1ccc(S(=O)(=O)Nc2cnc3ccccc3c2)cc1	7	9	5.8	-26	-5	12	3809
O=S(=O)(NC1CCSc2ccccc21)c1ccccc1 (stereo unspecified)	5	-4	5.4	-14	2	0	5596
CCN1CCN(S(=O)(=O)c2ccc(C(C)(C)C)cc2)CC1	6	0	0.7	-6	4	8	3940
COc1cccc(C(=O)OCC(=O)N2CCC(Cc3ccccc3)CC2)c1OC	5	4	-1.2	-8	.	-4	3709
O=C1CCC(=O)N1OCCCOc1ccc2c(c1)CCC2	.	.	2.3	-12	-2	1	2622
COc1cc(O)c(C(=O)O)c(-c2cc(O)c(O)cc2C)c1	.	.	13	68*	-11	-11	4273
O=C(Nc1nc2ccccc2[nH]1)c1ccc(F)c(S(=O)(=O)N2CCOCC2)c1	-4	4	-2.1	-56	1	-4	3394
CCOC(=O)C1CCN(C(=O)C2CCC(=O)N(Cc3cccc(C(F)(F)F)c3)C2)CC1 (stereo unspecified)	4	13	-0.2	-16	-3	6	6592
Cc1ccccc1Cn1c(CN2CCN(c3ccc(F)cc3)CC2)nc2c1c(=O)n(C)c(=O)n2C	3	10	-12	.	-7	-3	.
COc1ccc2c(c1)C(c1ccc(C)o1)=NNC(c1ccccc1)=N2	9	5	-1.1	-24	-1	3	2544
CC(C)[C@H](NC(=O)OCc1ccccc1)C(=O)NCc1ccccc1	.	.	.	-15	4	.	2791
CC(C)(C)NNC(=S)Nc1cccc(F)c1	1	8	1.0	-27	-2	3	4021
O=C(O)C1C2C=CC(C2)C1C(=O)NCc1ccc(Cl)c(Cl)c1 (stereo unspecified)	9	3	8.6	-26	-14	3	2603
O=C(Nc1ccc(N2CCOCC2)c(Cl)c1)c1ccc(F)cc1	5	1	3.0	-69	-7	12	6422
O=C1CN(C(=O)COC(=O)CCC(=O)c2ccc3c(c2)OCCO3)c2ccccc2N1	.	.	11	9	-4	3	3379
C/C(=N\NC(=O)Cn1cc([N+](=O)[O-])cn1)c1ccco1	.	.	.	-16	-1	.	3817
O=C(NCC(=O)N(c1ccccc1)C(C(=O)NC1CCCCC1)c1cccnc1)c1ccco1 (stereo unspecified)	6	8	1.0	-24	14	18	5216
Cc1cc(CN(C)Cc2ccc(OCC(O)CN(C)Cc3ccccc3)cc2)on1 (stereo unspecified)	18	6	4.4	1	2	7	2883
CCN1C(=O)[C@H]2[C@@H](c3ccc(-c4ccc(C(C)=O)cc4)cc3)N3CCCC[C@@]3(C(=O)OC)[C@H]2C1=O	.	.	.	-7	7	.	4025
CCC1CCCCN1C(=O)c1ccc2c(c1)C(=O)N(c1ccc(C)cc1)C2=O (stereo unspecified)	9	-1	2.2	-17	-1	5	6336
Cc1ccccc1Cn1cc(S(=O)(=O)CC(=O)Nc2nccs2)c2ccccc21	0	2	10	-23	1	6	10381
CCCN(C(=O)Cc1coc2cc(C)c(C)cc12)c1c(N)n(Cc2ccccc2)c(=O)[nH]c1=O	-2	-9	2.6	-15	6	1	?
Cn1c(=O)[nH]c(=O)c2c1nc(SCC(=O)O)n2CCc1ccccc1	7	8	-12	-29	-2	1	2369
CCc1ccc(NC(=O)C2CCC(CNC(=O)[C@@H]3Cc4ccccc4CN3)CC2)cc1 (stereo partly specified)	7	4	-1.1	-5	4	4	6731
CC1CCc2sc(-c3n[nH]c(=S)o3)cc2C1 (stereo unspecified)	12	12	37	-23	3	21	4021
CC(C(=O)NCc1ccc(F)cc1)n1ccc2cc(S(=O)(=O)N3CCCC3)ccc21 (stereo unspecified)	-4	-1	1.7	-1	0	-1	4680
CCN(CC)C(=O)[C@H]1C[C@H](CC(=O)NCCCOC)C(=O)N2CCc3c([nH]c4cc(-c5ccco5)ccc34)[C@]12C	-2	1	-1.9	-4	.	5	3994
Cc1nn(-c2cccc(C(F)(F)F)c2)c(Cl)c1/C=N/n1cnnc1	.	.	.	-4	15	.	2867
COc1cc(C=NNC(=O)c2cc(C)oc2C)cc(OC)c1OC	14	8	3.6	.	.	6	.
O=C(Nc1ccccc1Cl)C1CC(=O)N(c2ccccc2)C1 (stereo unspecified)	3	5	1.6	-17	-2	-2	5301
COC(=O)c1ccc(NC(=S)NC2CC3CCC2C3)cc1 (stereo unspecified)	6	11	-4.4	-48	-2	-8	2086
CC(C)Cc1ccc(S(=O)(=O)N2CCN(c3ccccn3)CC2)cc1	6	-5	2.3	-21	7	7	3872
COc1ccccc1Cn1c(SCC(N)=O)nc2c(oc3ccccc32)c1=O	-6	-6	5.2	3	.	-5	1943
CN(C(=O)CNC(=O)OCc1ccccc1)c1ccc(Br)cc1C(=O)c1ccccc1Cl	8	9	2.4	-22	30	-11	2218
CC(CNCC1CCCO1)COc1ccccc1 (stereo unspecified)	11	7	-1.7	-52	3	6	.
C1=C(c2ccccc2)CCN(c2nc3ccccc3n3cnnc23)C1	-3	5	11	-11	3	6	4442

Rewritten with values under each structure: entries from further up
The line under a structure holds: Mtb hypoxia rep, Mtb hypoxia rep growth, Sa RN4220 lethal, PrP 5UTR inh, BJeLR lethal, Sa ugtP lethal, Autofluor counter
COc1cc(C=NNC(=O)c2cc(C)oc2C)cc(OC)c1OC
    14, 8, 3.6, ., ., 6, .
CCOC(=O)c1nnn(-c2ccccc2C#N)c1C
    9, 11, 1.1, -11, 6, -1, 4309

The listing continues.
molecule	Mtb hypoxia rep	Mtb hypoxia rep growth	Sa RN4220 lethal	PrP 5UTR inh	BJeLR lethal	Sa ugtP lethal	Autofluor counter
CNC(=S)NN=C(C)c1cccc([N+](=O)[O-])c1	5	4	6.2	.	.	2	.
Cc1cc(C)c(NC(=O)C2CC(=O)N(C3CCCC3)C2)c(C)c1 (stereo unspecified)	6	-1	3.4	-10	.	4	3780
Cc1ccc(NC(=S)NCc2cccs2)c(C)c1	.	.	1.8	-11	11	3	5072
CC1CC(=S)Nc2ccccc2N1Cc1ccccc1 (stereo unspecified)	16	1	0.8	-17	-5	-5	1970
C/C(CC(=O)NCc1ccccc1)=N\NC(N)=S	.	.	.	-20	-5	.	4466
COc1ccc(NC(=O)Nc2ccc3c(c2)C(=O)N(C(C)CO)CC(C)C(CN(C)C(=O)Nc2ccc4c(c2)OCO4)O3)cc1 (stereo unspecified)	5	2	6.0	.	.	8	.
